Measles inh – inhibitors of measles virus growth in cells, primary screen, measles RdRp inhibitor project, cell-based, single point, HTS; 33,000 tested, 0.1% active; z-score (no concentration beside the values); infected Vero cells, GFP fluorescence, 64 h; stronger effect = lower value;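 active = z-score under -3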;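 note: score is relative to mean and SD of the compound wells of a plate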
* hit, by the source's call. The list is partial; rates above refer to the full screens.

The first 2 compounds as a preview:
SMILES	Measles inh
O=C(O)CCCN(Cc1ccc(Cl)cc1)S(=O)(=O)c1ccc(F)cc1	-0.9
O=C(C1CCN(S(=O)(=O)c2cccc3nsnc23)CC1)N1CCN(Cc2ccc3c(c2)OCO3)CC1	0.02

The whole of this part, from the first entry:
SMILES	Measles inh
O=C(O)CCCN(Cc1ccc(Cl)cc1)S(=O)(=O)c1ccc(F)cc1	-0.9
O=C(C1CCN(S(=O)(=O)c2cccc3nsnc23)CC1)N1CCN(Cc2ccc3c(c2)OCO3)CC1	0.02
C=CCN(CC=C)C(=O)C[n+]1ccc(C(N)=O)cc1	1.53
COc1ccc(C=Cc2ccc(OC)cc2)cc1	0.11
COCCCn1c(=N)c(C(=O)NCC2CCCO2)cc2c(=O)n3cccc(C)c3nc21 (centres undefined)	0.43
CCC(C(=O)Nc1c2c(nn1-c1ccc(F)cc1)CS(=O)(=O)C2)c1ccccc1 (centres undefined)	0.39
O=[N+]([O-])c1cccc(N2COc3ccc(Cl)cc3C2)c1	0.05
O=C(O)c1sc(C(=O)O)c2c1OCCO2	-0.22
COc1ccc(C)cc1N1C(=O)NC2CC1(C)Oc1ccc([N+](=O)[O-])cc12 (centres undefined)	0.66
CCOC(=O)c1c(NC(=O)NCc2ccccc2)sc2c1CCC2	-0.76
COc1ccc(C(c2c[nH]c3ccccc23)c2c[nH]c3ccccc23)c2ccccc12	0.78
Cc1cc2ccccc2n1CCNC(=O)c1ccc(Br)o1	0.87
Cc1nc(C)c(-c2csc(Nc3cccc([N+](=O)[O-])c3)n2)s1	2.41
O=C(Cn1c(=S)[nH]c2ccccc2c1=O)NC12CC3CC(CC(C3)C1)C2	-0.98
CCOC(=O)c1cnc2c(C)cc(C)cc2c1NCCCO	0.21
COc1ccc(Br)cc1C=Nc1ccccc1Br	1.3
COc1cccc(C2CC(c3ccc(Cl)cc3)Nc3ncnn32)c1OC (centres undefined)	-0.33
Nc1nnc2c(n1)-c1ccccc1C2=O	0.84
Cc1c(NC(=O)c2ccc(OCc3ccccc3)cc2)cccc1-c1nc2ncccc2o1	-0.32
CCCCNC(=O)CSc1nc2ccccc2c(=O)n1C1CCCC1	-0.98
COc1ccc(Nc2cc(NCCO)c([N+](=O)[O-])c3nonc23)cc1	1.1
COc1ccc2c(c1)C1(Nc3ccccc3C(=O)N1Cc1ccccc1)C(=O)N2 (centres undefined)	-0.46
CCCCNC(=O)C1CCC(=O)N1Cc1ccc(F)cc1 (centres undefined)	-0.65
O=C(NCCOc1ccc(F)cc1)c1cccc2ccccc12	-0.73
Cc1cc(C)c(NC(=O)c2cccs2)c(C)c1	0.07
COc1cc(OC)c(NC(=O)CCc2nc(-c3cccs3)no2)cc1Cl	0.57
Cc1ccc(S(=O)(=O)N2CCC(C(=O)NCCc3ccc(Cl)cc3)CC2)cc1	-0.09
COCCN1C(=S)NC2c3cc(C)ccc3OC1(C)C2C(=O)Nc1ccc(C)cc1C (centres undefined)	-0.63
COC(=O)CSc1nnc(-c2ccccc2Cl)o1	-0.55
O=[N+]([O-])c1cc2c(cc1C=Nc1ccc3oc(-c4ccc(Br)cc4)nc3c1)OCO2	-1.21
COc1ccc(C2C(C(=O)NCC3CCCO3)c3ccccc3C(=O)N2C2CCCCC2)cc1 (centres undefined)	-0.17
CCOC(=O)c1c[nH]c2c3c(ccc2c1=O)CCCC3	-0.73
CC1=C(C(=O)Nc2cc(C(F)(F)F)ccc2Cl)C(c2ccc(C)cc2)C2=C(CCCC2=O)N1 (centres undefined)	0.06
Cc1nn(C)c(C)c1S(=O)(=O)NCc1ccccc1Cl	1.51
CCCCCn1c(=O)[nH]c2cc(C(=O)N3CCC(C(N)=O)(N4CCCCC4)CC3)ccc2c1=O	-1.47
COc1ccc(N2C(=O)c3ccc(C(=O)OCC(=O)c4cccc([N+](=O)[O-])c4)cc3C2=O)cc1	-5.03*

Five compounds already listed, ordered by SMILES length, descending:
SMILES	Measles inh
COc1ccc(N2C(=O)c3ccc(C(=O)OCC(=O)c4cccc([N+](=O)[O-])c4)cc3C2=O)cc1	-5.03*
CC1=C(C(=O)Nc2cc(C(F)(F)F)ccc2Cl)C(c2ccc(C)cc2)C2=C(CCCC2=O)N1 (centres undefined)	0.06
COc1ccc(C2C(C(=O)NCC3CCCO3)c3ccccc3C(=O)N2C2CCCCC2)cc1 (centres undefined)	-0.17
Cc1ccc(S(=O)(=O)N2CCC(C(=O)NCCc3ccc(Cl)cc3)CC2)cc1	-0.09
CCOC(=O)c1c[nH]c2c3c(ccc2c1=O)CCCC3	-0.73

More entries follow:
SMILES	Measles inh
O=C(CN1C(=O)CSc2cc(S(=O)(=O)N3CCCCCC3)ccc21)NCCc1ccccc1	0.28
Cc1ccc(N(CC(=O)N2CCCCCC2)S(=O)(=O)c2ccccc2)cc1C	-0.53
CCOC(=O)c1c(NC(=O)c2cccc(Br)c2)sc(C(C)=O)c1C	0.9
Cc1ccc(C2=NN(CCC(=O)NCCc3cccc(C)c3)C(=O)CC2)cc1	-0.92
CN(Cc1ccco1)C(=O)CN1N=C(c2ccccc2)CCC1=O	-0.65
Cc1ccc(OC(=O)c2ccc(C)c([N+](=O)[O-])c2)cn1	-0.48
COC(=O)c1[nH]c2ccc(Br)cc2c1NC(=O)CN1CCOCC1	-1.09
CC(=O)c1cccc(Nc2cc(C)nc3c2ccc2ccccc23)c1	-0.1
CCOC(=O)c1cc2ccccc2nc1C	-0.56
COC(=O)c1cc(N)cc([N+](=O)[O-])c1	2.42
Cc1cc(O)ccc1-n1c(=O)c2cc3c(=O)n(-c4ccc(O)cc4C)c(=O)c3cc2c1=O	-0.38
COc1cccc(N2CCN(C(=O)c3cccc(N4C(=O)NC5CC4(C)Oc4c(OC)cccc45)c3)CC2)c1 (centres undefined)	0.68

Three compounds drawn at random from the list so far, as already listed:
SMILES	Measles inh
Nc1nnc2c(n1)-c1ccccc1C2=O	0.84
COC(=O)c1cc(N)cc([N+](=O)[O-])c1	2.42
CCC(C(=O)Nc1c2c(nn1-c1ccc(F)cc1)CS(=O)(=O)C2)c1ccccc1 (centres undefined)	0.39

The list goes on.
SMILES	Measles inh
CCOc1ccc(CCn2c(-c3ccccc3)c(CC)n3c4c(=O)n(C)c(=O)n(C)c4nc23)cc1OCC	1.76
O=C(O)c1ccc2c(=O)n(CCCN3CCCC3=O)c(=S)[nH]c2c1	-0.17
CC(C)(C)c1ccc(OCC(=O)Nc2ccc3oc(-c4ccncc4)nc3c2)cc1	-0.16
COc1ccc(C(C)=O)cc1CSc1nc2ccc(N3CCOCC3)cc2c(=O)n1Cc1ccccc1	0.49
Nc1ncnc(Nc2ccc(Cl)cc2C(=O)c2ccccc2Cl)c1[N+](=O)[O-]	-1.24
CCCn1c(C(O)c2cc(OC)c(OC)c(OC)c2)nc2ccccc21 (centres undefined)	-0.25
O=C1CN(c2ccc(Cl)cc2)C(=O)N1	-0.23
CC(=O)c1c(C)oc2ccc(NS(=O)(=O)c3ccccc3)cc12	-0.2
CCCOC(=O)C(C)Oc1ccc2c3c(c(=O)oc2c1)CCC3 (centres undefined)	0.39
COCCOC(=O)c1ccc(NC(=O)CN2C(=O)c3ccccc3C2=O)cc1	-0.12
O=C(CSc1nc(-c2ccccc2)cc(=O)[nH]1)NC1CCCC1	0.39
O=C1CCCC2=C1C(c1ccccc1)n1nc(SCc3ccccc3Cl)nc1N2 (centres undefined)	-0.61
O=C(c1cccc(S(=O)(=O)NC2CCCCCC2)c1)N1CCCc2ccccc21	-0.9
O=C(c1ccc(N2CC3CC(C2)c2cccc(=O)n2C3)c([N+](=O)[O-])c1)N1CCN(c2ccc(F)cc2)CC1 (centres undefined)	-1.15
O=C(CSc1nc2ccc(N3CCOCC3)cc2c(=O)n1Cc1ccc2c(c1)OCO2)c1ccc(Cl)cc1	0.41
CCC(C)(Nc1ccc(C)cc1)c1nnnn1-c1c(C)cccc1C (centres undefined)	-1.32
CCC(C)NS(=O)(=O)c1cc(Br)cc2c1N(C(C)=O)CC2 (centres undefined)	1.24
O=C(Nc1ccc(Cl)cc1C(F)(F)F)c1cc(S(=O)(=O)NCCc2ccccc2)ccc1F	-0.1
CCOC(=O)C1=C(C)N=C2SCCC(=O)N2C1c1ccc(SC)cc1 (centres undefined)	0.26
Cc1nc2ccc(Cl)cc2c(-c2ccccc2)c1C1=NN(C(=O)CCC(=O)O)C(c2cccc(Br)c2)C1 (centres undefined)	-0.38
Cc1ccc2c(c1)N(C(C)C(=O)NCc1ccccc1Cl)C(=O)CO2 (centres undefined)	-0.23
CCC(=O)N1c2ccc(S(=O)(=O)N3CCOCC3)cc2CC1C (centres undefined)	-0.38
CCOC(=O)c1cc(-c2ccccc2)sc1NC(=O)COc1ccccc1[N+](=O)[O-]	-0.4
Cc1c(Cl)c([N+](=O)[O-])nn1CCCC(=O)Nc1cccnc1Cl	-0.09
COC(=O)c1cc(Br)ccc1OC(=O)c1cccnc1	-0.61
C=CCN(CC=C)CC(O)Cn1c2ccccc2c2ccccc21 (centres undefined)	-1.09
CCN(CC)c1ccc2cc(-c3nc4ccc(Cl)cc4[nH]3)c(=O)oc2c1	2.24
COc1ccc(C(=O)N2c3ccccc3N=C(c3ccccc3)CC2c2ccccc2)cc1 (centres undefined)	0.09
COc1cccc(-n2c(=O)c3c(C)c(C)sc3n(Cc3ccc(C)cc3)c2=O)c1	-0.25
CCC(Sc1nc2ccccc2s1)C(=O)O (centres undefined)	0.87
COc1ccc(CNCc2ccc(OC)c(OC)c2)cc1C	-0.76
CCc1cc(=O)oc2cc(OCc3cc(C(=O)OC)oc3C)ccc12	-0.94
COc1ccc(S(=O)(=O)N2CC(C)N(S(=O)(=O)c3ccc(OC)cc3)CC2C)cc1 (centres undefined)	1.58
CC1CCCC(C)N1CC(O)COc1ccc(N=Cc2ccccc2O)cc1 (centres undefined)	0.43
COc1cc(OC)cc(C(=O)N2CCN(Cc3ccc4c(c3)OCO4)CC2)c1	0.15
CC(=O)NC(c1ccccc1)c1cc(Cl)c2cccnc2c1O (centres undefined)	-0.77
COc1ccccc1N=C1SC(C(=O)Nc2ccc(OC(F)(F)Cl)cc2)CC(=O)N1C (centres undefined)	-1.12
COC(=O)c1c[nH]n2c(NC3CCCC3)c(-c3cccc(OC)c3)nc12	-0.38
CCOC(=O)c1c(C)oc2ccc(OC(=O)c3ccc(Cl)cc3)cc12	-0.38
COc1ccc(C2CC(=O)C3=C(C2)NC(C)=C(C(=O)OC(C)C)C3c2ccccc2Br)cc1OC (centres undefined)	-0.67
Oc1ccc(N=Cc2c(O)ccc3ccccc23)cc1-c1nc2ccccc2s1	-1.29
CCn1c(=N)c(C(=O)NCCc2ccccc2)cc2c(=O)n3cccc(C)c3nc21	0.71
CCOC(=O)c1cnn(-c2ccccc2)c1N=Cc1cc([N+](=O)[O-])ccc1O	-0.36
CC(C)CCn1c(SCc2ccccc2)nc2ccsc2c1=O	0.14
CC1(C)CC(=O)C2=C(C1)NC(=O)CC2c1cccc([N+](=O)[O-])c1 (centres undefined)	-0.88
CC(=O)N1CCC2(CC1)CC(=O)c1cc(OCC(=O)NCc3ccccn3)ccc1O2	1.59
C=CCOC(=O)C1=C(C)NC(C)=C(C(=O)OCC=C)C1c1ccco1	-1.01
CCOC(=O)c1cnc2c(ccc3ccccc32)c1NC1CCCCC1	-0.07
COC(=O)c1c[nH]n2c(NC3CCCCCC3)c(-c3cccc(OC)c3)nc12	-0.79
CC(O)CNc1ncnc2ccc(Br)cc12 (centres undefined)	-0.93
O=C(CSc1nnc(-c2ccco2)o1)c1cccc2ccccc12	0.09
COc1ccc(NC(=O)C2=C(C)NC(=S)NC2c2cccs2)c(OC)c1 (centres undefined)	-0.64
CC1=CC(C2CC(=O)N(c3ccccc3C)C2=O)CC2C(=O)N(c3ccccc3C)C(=O)C12 (centres undefined)	-0.23
O=C(CCNC(=O)c1ccccc1F)NCc1ccco1	0.91
NC(=O)c1ccccc1NC(=O)C(F)(F)F	0.27
COc1ccccc1NC(=O)c1ccc(C(=O)Nc2ccccc2OC)cc1	1.19
NC(=O)c1occ2ccccc12	-0.05
CCOC(=O)C1=C(C(F)(F)F)Nc2ncnn2C1c1ccc(OC)cc1 (centres undefined)	-0.57
COc1cc(C=Nc2ccc(S(=O)(=O)Nc3ccccn3)cc2)ccc1OCc1ccccc1	-1.08
COc1ccc(OCCSc2nc3ccccc3n2CC(=O)O)cc1	0.68
Next section:
SMILES	Measles inh
CC(C)c1ccc(NC(=O)c2cccnc2)cc1	-1.13
Cc1ccc(Nc2cc(C)c3ccccc3n2)cc1Cl	-0.2
COc1ccccc1C1C(C(=O)Nc2cccc(C)n2)=C(C)NC2=C1C(=O)CCC2 (centres undefined)	0.49
Cc1ccc(-c2nc3cc(N=Cc4cc(Cl)ccc4O)ccc3o2)cc1	0.18
O=S(=O)(Nc1cccc(-c2cn3ccccc3n2)c1)c1ccccc1	-0.82
O=C(CC(NS(=O)(=O)c1ccc(Br)cc1)c1cccs1)NCc1ccccc1 (centres undefined)	0.84
CC(=O)N1C(=O)N(C)C2C1N(C)C(=O)N2C(C)=O (centres undefined)	0.26
Cc1[nH]nc2c1C1C(C2)C1(C)C (centres undefined)	-0.1
CCc1ccc(NC(=O)CCNC(=O)Cn2cnc3ccccc3c2=O)cc1	0.34
COc1ccc(C)cc1NC(=O)c1oc2ccc(S(=O)(=O)N3CCOCC3)cc2c1C	-0.02
COc1cccc(C2C(C(=O)Nc3ccc(Br)cn3)=C(C)NC3=C2C(=O)CCC3)c1OC (centres undefined)	1.4
Cc1nn(CC(=O)NCC#N)c(C)c1[N+](=O)[O-]	2.44
Cc1ccc(NC(=O)c2c(-c3ccccc3Cl)noc2C)cc1F	-0.43
c1ccc2c(N3CCCCC3)nc(N3CCCCC3)nc2c1	-0.63
O=C(CSc1nc2c(cnn2-c2ccc(F)cc2)c(=O)[nH]1)N1CCCCCC1	-0.88
Clc1ccc(-c2csc(Nc3ccccc3)n2)cc1	-1.63

Reformatted bar-delimited: 2 of the compounds above
Molecule | Measles inh
Cc1ccc(NC(=O)c2c(-c3ccccc3Cl)noc2C)cc1F | -0.43
c1ccc2c(N3CCCCC3)nc(N3CCCCC3)nc2c1 | -0.63
